RanGTP-Imp inh – disruptors of Ran-importin-beta complex formation – biochemical, FRET, CFP-Ran, YFP-importin-beta, homogeneous, primary screen | 300,000 tested, 1.1% active | AID 2216 | cell-free CFP-Ran/YFP-importin-beta FRET ratio | inhibition, % (concentration not given with the values);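 active means most replicates above 15%; inconclusive means exactly half above 15%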;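 further: 0% = DMSO wells and 100% = Ran loaded with GDP instead of GTP; wells of about 40 µL received 100 nL stock; the first replicate is given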
HNF4A DNA FP – change in binding of human HNF4 alpha to DNA | HNF4a-FITC DNA binding, fluorescence polarization, 1 h | activity change, % at 10 µM | 360,000 tested, 0.3% active; in the data active means activity change above about 30%, passing the limit was not always enough;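 further: controls were the assay level and a saturating level of protein; the project sought stronger binding though the title names inhibitors; some compounds called inactive have numbers as strong as hits; positive values seem to mean higher polarization but the record does not say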
Target sequence (P41235 whole entry, looked up): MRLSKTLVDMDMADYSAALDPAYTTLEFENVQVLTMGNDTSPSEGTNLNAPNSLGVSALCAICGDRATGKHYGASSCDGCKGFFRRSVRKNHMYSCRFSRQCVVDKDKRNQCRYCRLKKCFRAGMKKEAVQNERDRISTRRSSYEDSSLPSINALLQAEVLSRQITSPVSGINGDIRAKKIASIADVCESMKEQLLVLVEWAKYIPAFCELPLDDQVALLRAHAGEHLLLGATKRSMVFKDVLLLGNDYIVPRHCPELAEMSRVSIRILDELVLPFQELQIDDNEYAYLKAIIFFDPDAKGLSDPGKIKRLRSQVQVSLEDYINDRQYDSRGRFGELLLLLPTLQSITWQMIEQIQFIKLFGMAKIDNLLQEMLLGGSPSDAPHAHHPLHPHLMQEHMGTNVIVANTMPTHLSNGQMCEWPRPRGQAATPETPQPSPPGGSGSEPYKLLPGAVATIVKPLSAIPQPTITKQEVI
UCH37 DUB inh – blocks the human deubiquitinase UCH37; Q9Y5K5; purified proteasome/UCH37, Ub-AMC cleavage fluorescence; inhibition, % (test concentration not listed); 330,000 tested, 0.33% active; AID 588478;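 active means mean of two replicates above 20%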;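 further: 0% = compound-free wells with enzyme and 100% = wells lacking proteasome; stock transfer was 100 nL into about 20 µL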
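Test system – human UCH37 enzyme supplied as purified proteasome complex · Incubation – 30 min preincubation with enzyme, 25 min cleavage at room temperature · Detection – AMC fluorescence from Ub-AMC cleavage, excitation 355 nm, emission 460 nm · Benchmarks – no-proteasome wells (full inhibition) and compound-free wells (no inhibition)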
FGF22 binding – shifts melting point of recombinant human FGF22; AID 651658; Q9HCT0; calls only at 9.99 µM; recombinant FGF22 thermal shift, SYPRO orange fluorescence; percent of sucrose octasulfate shift, DMSO zero; 340,000 tested, 1.5% active;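 active means melting point raised past a set limit in the mean and every replicate; inconclusive means no clear call; three in four hits are not shown here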
E coli growth – blocks Escherichia coli growth. OD600 absorbance (test concentration not listed). 330,000 tested, 0.21% active. OD600, 23 h; hits give low values;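 active means OD600 absorbance below the run mean of sample wells minus 3.6 SD, in any replicate, cut at about 0.56 in these data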;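 further: stock transfer was 300 nL into about 60 µL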
AF4-AF9 inh – blocks AF4 peptide binding to human AF9; 350,000 tested, 0.47% active; inhibition, % at 10 µM; AlphaScreen, biotin-AF4 peptide binding to FLAG-AF9; AID 651704; P42568;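 active means every replicate reaching a set inhibition limit, whatever the replicate mean, cut at about 25% in these data; inconclusive means mean inhibition reaches that limit but some replicates miss it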;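 further: 0% = plate neutral control median and 100% = total signal loss; the record names both 10 and 1 µM as test concentration; the first replicate is given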
Target sequence (P42568 whole entry, looked up): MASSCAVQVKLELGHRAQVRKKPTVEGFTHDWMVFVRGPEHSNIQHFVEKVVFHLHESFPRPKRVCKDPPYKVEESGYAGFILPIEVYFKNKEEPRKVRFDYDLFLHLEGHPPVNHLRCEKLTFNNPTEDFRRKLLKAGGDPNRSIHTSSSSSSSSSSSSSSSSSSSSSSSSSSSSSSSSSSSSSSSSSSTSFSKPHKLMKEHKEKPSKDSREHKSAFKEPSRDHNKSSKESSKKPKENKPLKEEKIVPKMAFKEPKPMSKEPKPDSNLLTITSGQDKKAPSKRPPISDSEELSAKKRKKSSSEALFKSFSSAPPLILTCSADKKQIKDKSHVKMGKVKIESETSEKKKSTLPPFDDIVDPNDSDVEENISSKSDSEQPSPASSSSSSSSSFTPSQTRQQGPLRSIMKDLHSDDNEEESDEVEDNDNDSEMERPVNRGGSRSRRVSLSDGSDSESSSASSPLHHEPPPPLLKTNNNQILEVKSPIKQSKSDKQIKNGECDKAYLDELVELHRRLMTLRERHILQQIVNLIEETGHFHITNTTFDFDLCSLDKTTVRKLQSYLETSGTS
Vif A3G – HIV-1 Vif–A3G interaction blockers – biochemical, TR-FRET, GST-Vif 1-94, biotin-A3G peptide, dose response retest, primary screen (AID 1117319) | 260,000 tested, 0.57% active | TR-FRET GST-Vif / biotin-A3G peptide binding; higher % means a stronger effect; test concentration not given here; strong numbers were not always called active | inhibition, %, or IC50 in µM where a hit was titrated;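 active means above the screen mean plus three standard deviations and confirmed in dose response; inconclusive means results disagree or hit not tested in dose response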;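 further: Vif residues 1-94 fused to GST binding biotinylated APOBEC3G peptide 110-148; 0% = full assay without inhibitor and 100% = GST in place of GST-Vif; retest series ran down from 100 µM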
Starred values were filed as active, the others as inactive; i = inactive; ? = inconclusive; . = not tested or not shown. An excerpt; rates above refer to the full screens.

nr	SMILES	RanGTP-Imp inh	HNF4A DNA FP	UCH37 DUB inh	FGF22 binding	E coli growth	AF4-AF9 inh	Vif A3G
1	COCCNS(=O)(=O)c1ccc(OCC(=O)OC)c(Cl)c1	.	-4.6	2.3	.	0.73	.	-2%
2	COc1ccc(CNC(=O)O[C@H]2Cn3c(=O)ccc(=O)n3[C@@H]3CN(S(=O)(=O)c4ccc(C)cc4)C[C@]23O)cc1OC	.	-2.9	.	i	.	-6.5	-2%
3	CCCCNC(=O)CCn1nc(-c2ccccc2)c2ccccc2c1=O	2.5	-4.4	-0.6	.	0.69	.	-5%
4	N#Cc1ccsc1NC(=O)c1ccccn1	-1.6	5.7	4.8	.	0.67	.	10%
5	Cc1cc(N2CCCCC2)c(F)cc1[N+](=O)[O-]	4.9	9.5	5.8	.	0.7	.	7%
6	COC(=O)c1nc2n(n1)C(c1cccc(Cl)c1)C1=C(CC(C)(C)CC1=O)N2 (stereo not given)	6.9	3.6	8.5	i	0.71	5.4	-7%
7	Cn1nccc1C(=O)N/N=C/c1cccnc1	?	-0.3	.	i	.	3.4	?
8	CN(C)S(=O)(=O)c1ccc(C(=O)OCC(=O)NCc2ccccc2)cc1	2.0	-3.5	0.7	i	0.74	1.5	29%
9	COc1ccc2cc(C(=O)N3CCCC(Nc4ccc(F)cc4)C3)n(C)c2c1 (stereo not given)	2.0	-0.3	5.6	i	0.7	-5.2	4%
10	C/C(CC(=O)Nc1cc(C)ccn1)=N\NC(=O)c1cccc(C)c1O	4.0	0.5	.	i	.	3.6	.
11	O=C(CSc1ccc2nnc(-c3ccncc3)n2n1)Nc1nccs1	2.9	1.8	0.1	.	0.66	-0.8	-1%
12	COc1ccc(CCN=C(N)NS(=O)(=O)c2cc(F)ccc2OC)cc1	-1.8	-1.0	4.4	i	0.74	-1.2	17%
13	COc1cccc(CNC(=O)CCCn2c(=S)[nH]c3cc4c(cc3c2=O)OCO4)c1	1.2	1.2	-0.6	i	0.74	-4.3	.
14	COc1ccc(-c2cccc(CCC(=O)N3CCN(c4cc(C)ccc4C)CC3)c2)cc1	.	3.8	-2.2	i	0.71	0.1	-5%
15	O=S1(=O)CCOCCCN1Cc1cccc(C(F)(F)F)c1	2.8	2.4	4.0	i	0.64	-2.2	.
16	CCOC(=O)c1c(NC(=O)C2CCCCC2C(=O)O)sc2c1CCCCC2 (stereo not given)	2.6	1.1	2.4	i	0.66	-2.6	-2%
17	CCOC(=O)N1CCN(C(=O)CN(c2ccccc2OC)S(=O)(=O)c2ccc(OC)cc2)CC1	5.8	-2.6	2.5	i	0.65	0.4	2%
18	O=C(c1[nH]c(C(F)(F)F)nc1-c1ccccc1)N1CCN(c2ccccn2)CC1	.	1.8	.	.	.	-3.7	.
19	Cc1ccc(Cc2ccccc2C(=O)O)cc1	.	-0.3	0.6	i	0.68	-2.7	-7%
20	CCSc1nc(O)cc(=O)n1-c1ccc(OC)cc1	4.4	0.6	1.8	.	0.73	.	9%
21	CCOc1ccsc1C(=O)O	0.7	1.5	1.0	i	0.68	3.4	10%
22	Cc1nn(Cc2c(F)cccc2Cl)c(=O)c2ccccc12	0.6	0.3	3.5	i	0.72	-2.2	.
23	COc1ccc(Cl)cc1NS(=O)(=O)c1cccc(C(=O)NCCCN2CCOCC2)c1	.	0.5	.	i	.	-0.9	-9%
24	COc1cc(F)c(C2=CC(=O)CC(C)(C)C2)cc1F	.	-5.1	-0.8	i	0.65	-6.4	.
25	COc1ccc(C(=O)NCCS(=O)(=O)N2CCOCC2)cc1	-0.4	1.4	-1.4	i	0.62	-1.0	12%

nr	SMILES	RanGTP-Imp inh	HNF4A DNA FP	UCH37 DUB inh	FGF22 binding	E coli growth	AF4-AF9 inh	Vif A3G
26	Cc1cccc(OC(=O)Cn2c(C(F)(F)F)nc3ccccc32)c1	2.9	-0.8	2.9	.	0.77	.	5%
27	CCN1CCN(CCNC(=O)c2ccc3c(c2)N(Cc2ccc(F)cc2)C(=O)c2ccccc2S3=O)CC1 (stereo not given)	-3.0	3.8	2.2	i	0.7	4.4	.
28	COc1cc(S(=O)(=O)N2CCCCC2)ccc1NC(C)=O	2.7	-4.0	0.7	.	0.7	.	-1%
29	CC(=O)Oc1ccc2c(=O)c(Oc3ccccc3[N+](=O)[O-])coc2c1	0.6	2.0	.	.	.	-5.2	12%
30	COC(=O)c1c(C)noc1-c1ccc(Cl)cc1	0.2	-0.2	-0.2	i	0.69	1.6	16%
31	O=C(COC(=O)C12CC3CC(CC(C3)C1)C2)Nc1nccs1	3.9	4.9	3.6	i	0.7	-1.9	4%
32	CCOc1ccc(Nc2ccc(S(=O)(=O)N3CCN(C)CC3)cc2[N+](=O)[O-])cc1OCC	.	-1.5	.	i	.	6.4	.
33	Cc1ccc(SCc2cn3cccnc3n2)cc1	2.7	-0.1	1.9	.	0.71	.	-1%
34	O=C(NC1(O)C(=O)c2ccccc2C1=O)c1ccc(C(F)(F)F)cc1	?	3.5	79*	i	0.62	-6.1	?
35	O=C(NCCCN1CCOCC1)c1ccc(CS(=O)(=O)c2cccc(C(F)(F)F)c2)o1	-6.5	2.2	6.8	.	0.69	.	-2%
36	C=CCSc1nnc(-c2cc(Br)ccc2N)c(=O)[nH]1	-2.7	-2.4	5.1	i	0.73	1.6	20%
37	CCOC(=O)c1cc(C(C)=O)n2ccccc12	-1.4	0.2	8.2	.	0.69	.	-11%
38	Cc1ccc(C(=O)CN(Cc2ccccc2)C2=NCCS2)cc1	-2.6	-2.4	2.4	i	0.67	2.0	3%
39	COCCn1c(C)cc(C(=O)COC(=O)c2ccc(Cl)c(S(N)(=O)=O)c2)c1C	2.1	-2.4	.	i	.	-6.3	.
40	CCOC(=O)C1CCN(C2CC(=O)N(c3ccc(OCC)cc3)C2=O)CC1 (stereo not given)	-2.5	-2.3	2.1	.	0.69	.	24%
41	O=C(CC(=O)NC1CCCCC1)N/N=C/c1ccccc1Cl	-0.6	2.1	.	.	.	.	23%
42	COc1ccccc1N1CCN(c2ccc(N3C(=O)CCC3=O)cc2[N+](=O)[O-])CC1	-3.2	-1.5	4.6	i	0.68	11	-10%
43	NNC(=O)c1cccc(COc2ccccc2Br)c1	0.5	-3.0	2.7	.	0.69	.	-6%
44	O=S(=O)(NCC(c1ccco1)N1CCN(c2ccc(F)cc2)CC1)c1ccc(F)cc1 (stereo not given)	2.3	-1.3	.	.	.	.	4%
45	Cc1onc(-c2ccccc2)c1C(=O)Nc1nc2c(s1)CCCC2	-1.4	-2.5	5.6	.	0.7	.	?
46	Cn1c(SCc2cccc([N+](=O)[O-])c2)nc2c(c1=O)SCC2	16*	1.8	5.0	i	0.69	9.2	-6%
47	O=Cc1cn(Cc2ccccc2)nc1-c1cccnc1	?	-3.4	-2.6	i	0.65	1.2	4%
48	CC(Sc1ncccn1)C(=O)N1CCc2ccccc21 (stereo not given)	.	1.6	1.4	i	0.67	-1.9	1%
49	COCC1CCN(C(=O)C2CCC(=O)N(CC3CCCCC3)C2)CC1 (stereo not given)	-2.0	5.1	6.3	i	0.66	1.7	.
50	O=C(Nc1ccc(OCC(=O)N2CCC(Cc3ccccc3)CC2)cc1)c1ccco1	-2.1	2.0	0.5	.	0.72	.	7%

Record cards, from the list above. Order of values: RanGTP-Imp inh	HNF4A DNA FP	UCH37 DUB inh	FGF22 binding	E coli growth	AF4-AF9 inh	Vif A3G
`O=C(NC1(O)C(=O)c2ccccc2C1=O)c1ccc(C(F)(F)F)cc1` across the screens: ?	3.5	79*	i	0.62	-6.1	?
`NNC(=O)c1cccc(COc2ccccc2Br)c1` across the screens: 0.5	-3.0	2.7	.	0.69	.	-6%
`COc1ccccc1N1CCN(c2ccc(N3C(=O)CCC3=O)cc2[N+](=O)[O-])CC1` across the screens: -3.2	-1.5	4.6	i	0.68	11	-10%

Later entries:
nr	SMILES	RanGTP-Imp inh	HNF4A DNA FP	UCH37 DUB inh	FGF22 binding	E coli growth	AF4-AF9 inh	Vif A3G
51	COc1ccc(/C=N/Nc2ccccc2C(=O)O)cc1Cn1cc([N+](=O)[O-])cn1	-1.4	-6.3	.	i	.	11	.
52	O=C1c2ccccc2C(=O)N1CCOCCN1C(=O)c2ccccc2C1=O	0.4	-3.1	0.7	.	0.72	.	?
53	Cc1cc(C)nc(CCNC(=O)CC2C(=O)NCCN2Cc2ccccc2)n1 (stereo not given)	-0.5	-0.8	1.1	i	0.69	4.2	.
54	O=C(CSc1ccccc1)NCC1(N2CCCCC2)CCCCC1	7.7	1.9	1.8	.	0.7	-5.0	3%
55	CCC(C)[C@H](NC(=O)N1CCn2c1nc1ccccc12)C(=O)NCc1ccc(OC)cc1 (stereo not given in full)	-4.9	7.1	2.8	i	0.67	-3.5	2%
56	COc1cc(OC)c(NC(=O)N2CCOCC2)cc1Cl	-1.4	-2.2	1.1	i	0.65	2.5	.
57	O=C(Cn1ccc([N+](=O)[O-])n1)NCC1CCCO1 (stereo not given)	-4.6	-1.4	1.7	i	0.72	0.4	2%
58	CCCCNC(=O)/C(C#N)=c1\s/c(=C\c2ccccc2OC(F)F)c(=O)n1CCCOC	7.3	12	.	i	.	1.7	-3%
59	CCn1nc(C)c(C2C(C#N)=C(N)OC3=C2C(=O)CC(C)(C)C3)c1C (stereo not given)	2.0	1.2	2.3	.	0.67	.	17%
60	CC(C)(C)OC(=O)N1CCC(C(=O)N[C@@H](Cc2ccccc2)C(=O)O)(c2ccccc2)CC1	-0.1	-2.7	-0.1	.	0.71	.	.
61	Cc1ccc(C)c(NC(=O)CCN2CCN(c3ccccc3F)CC2)c1	-2.2	0.0	3.7	i	0.62	-12	-5%
62	O=C(NCc1ccco1)c1cccc2ccccc12	5.3	0.3	-0.1	.	0.71	.	?
63	CCOC(=O)C1=NNC(C(=O)c2ccccc2)C1c1ccc(OC)cc1 (stereo not given)	-1.6	-0.5	6.8	.	0.76	.	0%
64	CCOC(=O)c1cc(C(=O)c2cc(F)ccc2O)coc1=N	0.1	2.0	-13	.	0.71	.	0%
65	N#CC1(NC(=O)COC(=O)c2nc(Cl)ccc2Cl)CCCCC1	0.6	-1.5	4.3	i	0.67	-3.1	-7%
66	COC1=C(Nc2ccccc2OC)C(=O)c2ccccc2C1=O	7.4	2.5	8.0	i	0.67	50*	4%
67	O=C(NCCc1nc2ccccc2[nH]1)c1ccc(Cl)c([N+](=O)[O-])c1	2.6	0.1	.	i	.	-14	?
68	Nc1ccc(-n2cnc3cc([N+](=O)[O-])ccc32)cc1	3.2	1.9	3.2	.	0.73	.	8%
69	CCCCn1nnnc1C(c1ccccc1)N1CCN(C(=O)c2ccco2)CC1 (stereo not given)	.	1.8	.	i	.	-1.5	.
70	Cc1nn(CC(=O)NCCCN2CCCC2)c(=O)c2nn(-c3ccccc3)c(C)c12	3.8	2.7	3.9	i	0.67	0.0	2%
71	CN(CCCNC(=O)Cn1c(=O)c2cccn2c2ccccc21)Cc1ccccc1	-0.4	2.8	0.1	i	0.64	0.3	1%
72	CC(C)CN1C(=O)C(=O)N(CC(=O)c2ccc[nH]2)C1=O	1.8	-1.1	2.7	i	0.62	-1.0	6%
73	CC1CCCCC1NC(=O)CSc1nnc(CC(=O)Nc2ccccc2F)n1C (stereo not given)	1.5	2.2	0.1	i	0.66	-1.1	.
74	CCN1CCN(S(=O)(=O)c2ccc(Cl)c(C(=O)Nc3nnc(C)s3)c2)CC1	1.2	0.7	-0.5	i	0.66	-4.5	8%
75	Cc1c(NC(=O)CNCc2ccc3c(c2)OCO3)c(=O)n(-c2ccccc2)n1C	1.3	-2.8	-1.5	i	0.71	-17	-7%
76	CC1CC1C(=O)OCC(=O)Nc1ccccc1Oc1ccccc1 (stereo not given)	2.9	-1.2	0.7	i	0.72	-2.2	.
77	C=CCn1c(-c2ccc([N+](=O)[O-])cc2)n[nH]c1=S	2.4	0.9	7.7	.	0.6	.	2%

Screening results from PubChem.
